TRPML1 agonist: activates the human TRPML1 channel; Q9GZU1; TRPML1-expressing cells, Ca2+ dye fluorescence, FDSS; host cell line not named in the record; reference of the full effect not given here; activation, % (test concentration not listed); 0.12% of 410,000 active; AID 624414; in the data active = activation above about 50%; inconclusive = about 30% to 50%; inactive = below about 30%; note: 0% is about no effect; the text of the record puts the active cut at 80%
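Cells: TRPML1-DL, 1X Tet inducer, ~16 h at 37 degrees C/5% CO2. Dye: ABD Ca8 no-wash + quencher, 45-90 min RT. Read: 10 s baseline, compound add, 110 s agonist phase; 54-4 EC80 (4uM final), 110 s antagonist phase.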
D2 potentiator: potentiates the human D2 dopamine receptor allosterically; P14416; DiscoveRx D2 beta-arrestin cells, luminescence, 90 min; 100% = 57 uM dopamine signal; potentiation, % (no concentration beside the values); 0.23% of 360,000 active; AID 624464; active = potentiation of 50% or more; inconclusive = 30% to 50%; inactive = 30% or less;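 note: compound concentration not given in the record; tested on top of an EC20 dose of dopamine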
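D2 cells co-treated with compound plus 50 nM dopamine (EC20) for 90 min at 37 deg C to detect potentiation. Beta-arrestin recruitment was read as enzyme-fragment luminescence after 1 h at ambient temperature. Full response was set by 57 uM dopamine.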
CtBP-E1A blk: blocks the CtBP interaction with E1A; AlphaScreen GST-E1A/His-CtBP binding, 1536-well; active compounds read low; control for the full effect not named in the record; activity change, % (no concentration beside the values); 0.49% of 340,000 active; in the data active means activity change below about -65%; inconclusive means about -30% to -65%; inactive means above about -30%; note: % is set by controls: 0 for no effect and ±100 for the full control effect
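Steps: dispense buffer (Tris pH 8.0, NaCl 300 mM, TCEP 1 mM, BSA, Tween 20); add 5X protein mix (GST-E1A, His-CtBP, 125 nM each); pin 23 nL compound; 2 h at 37 °C, dark; add 5X beads (50 ug/mL); 1 h; read.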
D2 ag: agonists of human D2 dopamine receptor (beta-arrestin); 0.084% of 360,000 active; DiscoveRx PathHunter D2 beta-arrestin, luminescence, 90 min; 100% = 57 uM dopamine signal; activation, % (no concentration beside the values); P14416; in the data active = activation above about 40%; inconclusive = about 15% to 40%; inactive = below about 15%; note: compound concentration not given in the record; the text of the record calls up to 30% inactive
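Agonist mode: compounds alone added to overnight-plated D2 PathHunter cells for 90 min at 37 C, with 57 uM final dopamine (EC100) defining full response. Beta-arrestin recruitment detected by chemiluminescent reagent, read after 1 h at ambient temperature.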
Six1-Eya2 inh: Six1/Eya2 interaction inhibition; Q15475+O00167; AlphaScreen GST-Six1/His-Eya2 binding, biochemical; active compounds read low; control for the full effect not named in the record; activity change, % (concentration not given with the values); 0.56% of 360,000 active; AID 651725; in the data active = activity change below about -65%; inconclusive = about -30% to -65%; inactive = above about -30%; note: % is set by controls: 0 for no effect and ±100 for the full control effect
Target sequence (O00167 whole entry, looked up): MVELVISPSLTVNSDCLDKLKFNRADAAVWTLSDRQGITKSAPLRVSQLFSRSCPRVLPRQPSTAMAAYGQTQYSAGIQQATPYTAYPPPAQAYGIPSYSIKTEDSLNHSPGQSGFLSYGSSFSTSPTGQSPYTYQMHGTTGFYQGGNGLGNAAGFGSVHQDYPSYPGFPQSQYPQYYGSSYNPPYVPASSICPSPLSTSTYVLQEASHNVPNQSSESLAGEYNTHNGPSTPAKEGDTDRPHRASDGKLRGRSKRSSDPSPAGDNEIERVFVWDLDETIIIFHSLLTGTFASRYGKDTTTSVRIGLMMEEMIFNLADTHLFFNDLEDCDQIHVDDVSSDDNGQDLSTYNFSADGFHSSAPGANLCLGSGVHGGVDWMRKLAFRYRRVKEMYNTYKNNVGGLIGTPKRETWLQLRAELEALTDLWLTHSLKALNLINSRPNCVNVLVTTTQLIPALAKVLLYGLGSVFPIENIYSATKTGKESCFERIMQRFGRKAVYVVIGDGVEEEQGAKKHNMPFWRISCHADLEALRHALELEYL
Target sequence (Q15475 whole entry, looked up): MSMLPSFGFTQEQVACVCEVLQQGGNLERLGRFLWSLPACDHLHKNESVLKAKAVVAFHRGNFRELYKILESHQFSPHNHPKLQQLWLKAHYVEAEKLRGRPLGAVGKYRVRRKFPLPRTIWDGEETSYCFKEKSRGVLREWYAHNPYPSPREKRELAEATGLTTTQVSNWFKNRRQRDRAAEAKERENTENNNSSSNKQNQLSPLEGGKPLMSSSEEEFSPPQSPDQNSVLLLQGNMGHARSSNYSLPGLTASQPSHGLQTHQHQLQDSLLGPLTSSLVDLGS
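Six1/Eya2 binding was read as AlphaScreen signal after compounds were pinned into GST-Six1 plus His-tagged Eya2 (5X stock 250/500 nM) in pH 8.0 Tris/NaCl/TCEP buffer, beads added, then incubated 1 h, 37 C, dark.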
PINK1 expr mod: PINK1 expression modulation; AID 624263; PINK1 immunofluorescence, high-content cytometry, 24 h; 0.2% of 410,000 active; Potency, µM (top dose mostly 76.6 µM), for inactives: at the top dose activation (PINK1 increase), actives largely listed as activators; active = well fitted activation curve with a large enough effect; inconclusive = small, poorly fitted or top-dose-only effect; inactive = flat fitted curve, though single readings scatter; cell line not stated here;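 note: potency is the fitted concentration of half-maximal effect; % of control where 0% means no effect; nearly all actives have a fitted effect of over 65% in size; a mitochondrial uncoupler was the plate control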
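Compound titrations (5 concentrations, 24 h) on a stable cell line; DMSO and CCCP controls. Endpoint: fixed-cell PINK1 immunofluorescence with mitochondrial, cell and nuclear markers, scanned by microplate cytometer.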
An asterisk follows results filed as active; u = inconclusive; x = no result given; & = joins results of further samples; [ ] = another dose, or the depositor's remark.

SMILES	TRPML1 agonist	D2 potentiator	CtBP-E1A blk	D2 ag	Six1-Eya2 inh	PINK1 expr mod
CCOc1ccccc1NC(=O)COC(=O)Cc1ccc(-c2ccccc2)cc1	0.1	-0.8	x	-3.0	14.6	-0.3%
COC(=O)[C@H](Cc1ccccc1)NC(=O)N(C)Cc1ccccc1	2.4	-3.8	5.4	-4.6	-1.1	0.0%
O=C(NCc1ccncc1)Nc1ccc(Cc2ccc(NC(=O)NCc3ccncc3)cc2)cc1	0.1	-7.6	2.2	-2.2	2.8	1.9%
CC1=C(C(N)=O)C(c2ccccc2[N+](=O)[O-])n2ncnc2N1 (stereo unspecified)	0.9	-7.9	x	-4.6	-26.4	0.4%
Cc1nnsc1NC(=O)OCC(C)C	0.3	-10.1	3.7	-1.7	-2.9	-0.9%
CCCOc1ccc(Cc2c(Cl)nc(SC)nc2NC)cc1	1.4	-0.3	10.9	-0.4	20.9	u
Cc1noc(C)c1S(=O)(=O)N1CCCC(C(=O)NCCc2ccc(Cl)cc2)C1 (stereo unspecified)	0.0	-36.6	-9.2	-1.6	-7.0	-1.2%
C=CCC[C@H](Cc1ccc(F)cc1)C(=O)OC[C@H](C)NC(=O)[C@H](CC=C)CC(=O)N(CCO)Cc1ccccc1	1.2	4.7	3.9	1.1	-7.2	4.0%
CC1Oc2ccccc2N(CC(=O)N2CCc3ccccc32)C1=O (stereo unspecified)	0.1	-15.4	12.5	-1.2	13.4	0.1%
COc1ccc(C2Nc3ccc(Br)cc3C(c3ccccc3)N2CC(=O)O)cc1 (stereo unspecified)	-0.4	-47.3	7.7	-7.4	-6.0	0.6%
Cc1ccc(NS(=O)(=O)c2ccc(NC(=O)[C@@H]3CCCC[C@@H]3C(=O)O)cc2)c(C)c1	0.0	-1.0	-9.6	4.6	8.1	-2.1%
CC1CCC2(CC1)NC(=O)N(CC(=O)NC1CCCCC1C)C2=O (stereo unspecified)	0.1	-3.2	0.0	2.2	7.6	-2.3%
COc1ccc(N2CC(C(=O)Nc3ccc4c(c3)OCCO4)CC2=O)cc1 (stereo unspecified)	0.6	-6.0	4.4	-1.7	-9.5	2.9%
O=C(CNCC1CCCCC1)Nc1ccc(OC(F)(F)F)cc1	17.5	-10.2	-0.6	1.0	7.6	0.0%
NC(=S)N=Nc1c(O)[nH]c2ccccc12	0.3	-15.9	u	-4.8	u	-3.1%
COc1ccc(-c2cc(-c3ccc(C)cc3)n[nH]2)c(O)c1	0.8	-11.1	x	-6.5	-9.5	6.9%
Cc1ccc2nc(-c3ccc(NC(=O)c4cccnc4)cc3)oc2c1	0.0	-4.1	x	13.1	-1.0	-1.7%
COc1ccc(OCCN2CCN(C3CC(=O)N(CCC(C)C)C3=O)CC2)cc1 (stereo unspecified)	0.3	-18.2	3.2	-0.1	-1.3	1.2%[38.3 µM]
COc1cccc(C(=O)Nc2ccc(C(F)(F)F)n(C)c2=O)c1	-0.5	1.4	3.2	-0.6	15.2	2.8%
COc1ccccc1N(C)S(=O)(=O)c1ccc(C(=O)N2CCCC(C(F)(F)F)C2)cc1 (stereo unspecified)	1.1	2.0	-4.8	-3.4	8.4	4.5%
Cc1ccc(N2CCN(c3ccc(C)cc3)C2c2ccccn2)cc1	-0.4	-29.2	7.8	-1.1	-25.9	x
CCN1CCCC1CNC(=O)C(=O)NC(C)C (stereo unspecified)	1.8	-1.8	1.7	-1.1	7.5	0.2%
Cc1cccc(NC(=O)c2cccnc2)c1	-0.2	9.0	8.3	-2.9	2.9	-0.7%
O=C(Cc1cccs1)NCc1cccc(CNC(=O)Cc2cccs2)c1	0.0	-4.2	x	1.7	5.8	0.7%
O=C(COC(=O)c1ccc(Cl)c(S(=O)(=O)N2CCCC2)c1)NCc1ccccc1	1.6	-0.8	0.1	-0.6	-0.7	5.1%

Later entries:
SMILES	TRPML1 agonist	D2 potentiator	CtBP-E1A blk	D2 ag	Six1-Eya2 inh	PINK1 expr mod
O=C(NC1=NCCS1)c1cccc(S(=O)(=O)N2CCc3ccccc32)c1	0.9	-2.0	-17.7	2.4	11.9	0.5%
Cc1ccc(C(=O)N2CCCC(N3CCN(c4ccccc4F)CC3)C2)s1 (stereo unspecified)	-0.9	-39.7	1.3	0.3	4.7	-1.2%
Cc1c(C(=O)N2CCCC2)c(S(=O)(=O)Nc2cccc(Br)c2)c(C)n1C	-0.4	-5.0	-2.9	-1.7	-0.3	-0.2%
CSc1ccc(-c2nc(CSCC(=O)NC3CC3)c(C)o2)cc1	-0.6	-13.1	u	12.7	-9.4	-0.2%
CSc1c[n+]2c(n1C)CCC2	3.5	-8.3	19.3	2.1	4.6	-1.3%[38.3 µM]
CCCNC(=O)Cn1cnc([N+](=O)[O-])n1	-0.3	7.0	-4.4	-0.6	9.3	1.5%
CC(=O)Nc1cccc(Oc2nc(C)cc(C)c2C#N)c1	-0.2	0.4	3.7	-1.8	-2.9	0.5%
Cc1ccc(CC(=O)N2CCOCC2)cc1	1.7	-3.5	-3.4	-2.6	-1.6	-0.4%
O=C(Nc1ccccc1Cl)NC1CCCCCCC1	1.7	-11.8	9.5	1.8	9.9	9.3%
CCOC1OC(=O)C(Cl)=C1Nc1ccccc1C (stereo unspecified)	0.0	-21.5	16.3	-2.3	7.0	4.5%
Cc1ccc(Br)cc1S(=O)(=O)N1CCN(c2ccccc2)CC1	1.5	-11.8	-2.9	-4.1	-6.7	-1.1%
CC(=O)N1c2ccc(S(=O)(=O)N(C)CC(=O)NC3CCCCC3C)cc2CC1C (stereo unspecified)	-1.1	-4.9	6.5	5.9	-0.6	-0.5%
Cc1ccc(S(=O)(=O)NCN2C(=O)c3ccccc3C2=O)cc1	-0.9	-13.7	4.6	-0.5	7.2	1.1%
O=C(Nc1nnc(CSCc2ccc(F)cc2)s1)c1ccc([N+](=O)[O-])cc1	-0.6	-1.3	-2.2	-0.3	0.7	1.5%
CCN(CC)C(=S)SCC(=O)Nc1ncc2c(n1)CCCC2=O	0.8	-8.4	-5.8	5.9	4.1	0.5%
CC1=C(C(=O)N(C)C)CC(CC(=O)NCc2cccc3ccccc23)C(=O)N1Cc1ccc(C(C)(C)C)cc1 (stereo unspecified)	0.4	-5.1	3.6	-6.8	-5.5	1.6%
Cc1nc2ccc(NC(=O)c3cc(S(=O)(=O)N(C)c4ccccc4)ccc3Cl)cc2s1	-0.1	2.0	8.6	2.6	1.1	24.6%
O=C(Nc1cc(C(F)(F)F)ccc1N1CCCC1)c1cccnc1	0.2	-9.0	-8.7	0.6	-1.2	-3.7%
COc1ccc(-c2cc(C(=O)Nc3nc4ccccc4s3)c3ccccc3n2)cc1OC	2.4	-6.5	-11.7	-5.1	-4.6	0.5%
COc1cc(C(c2c(C)[nH][nH]c2=O)c2c(C)[nH][nH]c2=O)ccc1OC(C)C	1.6	-10.5	5.2	-0.7	2.2	3.1%
O=C(COC(=O)c1n[nH]c2ccccc12)Nc1ccc(Cl)cc1[N+](=O)[O-]	3.4	20.6	-20.4	9.9	-25.5	4.7%
Cc1cc(C)nc(Sc2ccc3nnc(C(F)(F)C(F)(F)C(F)(F)F)n3n2)n1	-0.1	1.0	40.0	-2.4	20.3	x
CCn1cc(CNC(=O)c2ccc(OC3CCN(Cc4ccccn4)CC3)cc2)cn1	0.0	-6.6	6.4	-5.7	4.5	-1.8%
O=S(=O)(Nc1ccccn1)c1cccc(S(=O)(=O)c2ccc(Br)cc2)c1	2.0	-14.1	-12.2	-3.8	22.5	1.4%
COc1cccc(NC(=S)NC(C)c2ccc(OC)c(OC)c2)c1 (stereo unspecified)	0.7	-7.2	0.0	-2.4	3.1	1.7%

(next part)
SMILES	TRPML1 agonist	D2 potentiator	CtBP-E1A blk	D2 ag	Six1-Eya2 inh	PINK1 expr mod
COc1ccc(OC)c(NC(=O)CCOc2cccc(C)c2)c1	2.8	-4.7	-11.9	-1.1	-1.8	-0.7%
Oc1ccc(N2CCN(CC(O)c3ccccc3)CC2)cc1 (stereo unspecified)	-0.6	-3.9	-0.5	3.3	3.1	0.7%
COc1ccc(/C=N/NC(=O)c2cccs2)c2ccccc12	0.0	-5.8	-0.5	-7.3	-17.6	4.6%
O=C(Nc1ccc2c(c1)OCCO2)C(c1cc2ccccc2o1)N1CCN(c2ccc(F)cc2)CC1 (stereo unspecified)	0.3	-9.9	0.0	-5.1	-14.8	-1.0%
Cc1ccc(Oc2ccc(S(=O)(=O)N3CCOCC3)cc2C(N)=O)cc1C	0.2	-1.2	-4.3	-3.8	7.3	1.1%
Clc1cccc(Cc2c(-c3ccccc3)nc3ccc(Br)cn23)c1	-0.2	-3.0	-0.9	-3.2	-3.7	3.7%
O=S1(=O)CC(N2CCN(c3ncccn3)CC2)CN1Cc1ccc(F)cc1 (stereo unspecified)	-0.3	-3.3	-22.2	-3.3	8.8	-0.7%
CCc1ccccc1NC(=O)NNC(=O)CCc1ccc(OC)cc1	-0.6	-4.0	1.7	-0.3	-2.1	0.7%
NS(=O)(=O)c1ccc(-c2ccc(C=C3C(=O)c4ccccc4C3=O)o2)cc1	0.0	-0.2	2.2	-6.7	0.5	0.5%
COc1ccc(CSc2nnnn2-c2ccccc2)cc1	1.8	-8.4	28.3	-1.1	25.6	0.6%
C=CCn1c(CSc2nc3ccccc3s2)nnc1SCC(=O)NCc1ccco1	1.0	4.0	-1.7	-1.8	-6.4	-0.6%
S=C(NC1CCCCC1)N1CCN(c2ncccn2)CC1	1.9	10.4	-17.1	13.4	3.0	-1.6%
COc1c(F)c(F)c(C(=O)O)c(Nc2cc(C)cc(C)c2)c1F	-0.4	-3.1	-4.8	-1.2	2.9	0.6%
Cc1ccccc1NC(=O)COC(=O)c1ccc(S(C)(=O)=O)c([N+](=O)[O-])c1	0.1&4.2	-0.6	-27.7	4.3	-16.5	1.1%&-2.6%
CC(=O)N1CCc2cc(S(=O)(=O)NC(CC(C)C)C(=O)Nc3cc(C(=O)O)ccc3C)ccc21 (stereo unspecified)	0.4	-6.5	-3.6	-3.9	-15.9	-1.3%
Cc1nc(C)c(-c2ccc(SCC(=O)Nc3ccc(F)cc3F)nn2)s1	-0.6	4.3	-6.1	1.9	-12.6	0.5%
COc1cc(/C=C2\SC(N)=NC2=O)ccc1O	0.9	-21.1	-19.4	-4.7	-19.1	-0.9%
Cc1nc(SC2CC(=O)N(c3ccccc3)C2=O)nc2c1CCCC2 (stereo unspecified)	0.5	5.9	-2.4	0.2	-0.9	7.0%[38.3 µM]
COc1cccc(N=Cc2nc(-c3ccccc3)oc2OC(C)=O)c1	1.5	-12.7	-7.0	-3.5	0.4	-0.4%
O=C(CSc1nc2ccccc2[nH]1)N=Nc1c(O)[nH]c2ccccc12	0.0	-10.3	-22.8	2.4	-13.8	-0.3%
Cc1cc(C)cc(N(CC(=O)NC2CCCC2)C(=O)c2csnn2)c1	-0.4	-2.2	-15.0	0.2	-7.2	-2.9%

Whole records from above.
S=C(NC1CCCCC1)N1CCN(c2ncccn2)CC1 is listed with TRPML1 agonist = 1.9; D2 potentiator = 10.4; CtBP-E1A blk = -17.1; D2 ag = 13.4; Six1-Eya2 inh = 3.0; PINK1 expr mod = -1.6%
Cc1cc(C)cc(N(CC(=O)NC2CCCC2)C(=O)c2csnn2)c1 is listed with TRPML1 agonist = -0.4; D2 potentiator = -2.2; CtBP-E1A blk = -15.0; D2 ag = 0.2; Six1-Eya2 inh = -7.2; PINK1 expr mod = -2.9%

From PubChem BioAssay
